# PrP 5UTR inh = inhibition of PrP 5' UTR reporter expression | hit rate 0.35% among 340,000 | AID 488862 | cell-based PrP 5' UTR mRNA reporter, plate reader | inhibition, % (concentration not given with the values);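 active means every replicate at 50% or more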;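 further: 0 = median of the neutral control wells; tested in H4 reporter cells; numbers are from one replicate; inactives centre near -14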
# RN4220 kill = S. aureus RN4220 growth inhibition; hit rate 0.33% among 330,000; OD600, 16 h; inhibition, % (no concentration beside the values);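 active means z-score of -3 or lower and OD600 up to 0.18 on both plates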;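 further: plate controls were untreated cells for no effect and reference antibiotic for full effect; stock transfer was 100 nL into about 80 µL; one replicate is shown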
# Autofluor counter = counter-screen for toxin protease inhibitors: compound fluorescence; hit rate 3.1% among 360,000; AID 624483; fluorescence intensity (no concentration beside the values); compound autofluorescence counterscreen, microsphere flow cytometry; active compounds read high;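 active means at least 3 SD above the mean of all compounds, about 16000 in these data; inconclusive means too few beads counted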;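 further: 100 nL of 1 mM stock went into each well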
# Sa ugtP lethal = compounds lethal to S. aureus RN4220 ugtP deletion mutant; OD600 growth, 16 h; some inactives read as strong as hits; growth inhibition, % (concentration not given with the values); hit rate 0.54% among 330,000;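 active means z-score under -3 and OD600 up to 0.15 on both plates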;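 further: plate controls were untreated wells for no effect and antibiotic for full effect; wells of about 80 µL received 100 nL stock; the first replicate is given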
# BJeLR viability = BJeLR cell viability loss | AID 1554 | BJeLR (HRASV12) viability, CellTiter-Glo ATP luminescence, 48 h; reference of the scale not given here | hit rate 0.17% among 300,000 | inhibition, % (test concentration not listed);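 active means replicate mean above 50%; inconclusive means above 50% but judged a plate artefact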;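 further: 50 nL library stock added to about 25 µL; numbers are from one replicate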
# Mtb hypoxia inh = reduces hypoxia-regulated biosensor signal in M. tuberculosis | fluorescence inhibition, % (test concentration not listed) | M. tuberculosis hypoxia-regulated fluorescent reporter, fluorescence | hit rate 0.1% among 300,000;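 active means 35 to 45% if threefold the growth effect, above 45% if 1.5-fold the growth effect; inactive means the rest, general growth blockers included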;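 further: wells of about 50 µL received 100 nL stock; 0% = vehicle wells and 100% = reference inhibitor wells; whole bacteria with a GFP reporter of the hypoxia response; strong numbers were not always called active; many hits fall short of the cut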
# Mtb hypoxia inh growth = second read-out of Mtb hypoxia inh, no call of its own (marks repeat the call); growth inhibition, %; measured here: M. tuberculosis growth (absorbance);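 0% = vehicle and 100% = reference antibiotic; read after six days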
# * hit, by the source's call; ? = inconclusive; nt = no result given.
SMILES,PrP 5UTR inh,RN4220 kill,Autofluor counter,Sa ugtP lethal,BJeLR viability,Mtb hypoxia inh,Mtb hypoxia inh growth
Cc1cc(Nc2ccc3ccccc3c2)n2ncnc2n1,-63.8,3.3,6033,-9.1,nt,-14.4,-1.5
O=C(CC1C(=O)NCCN1C(=O)Nc1ccccc1)Nc1cc(Cl)ccc1Cl (stereo unspecified),0.1,-0.6,3289,1.4,-1.7,2.9,8.0
O=C(NCCC(=O)N(CCc1ccccc1)Cc1ccccc1)c1ccc([N+](=O)[O-])cc1,-29.2,3.6,5290,-0.8,-2.4,-1.3,-2.5
Cc1cc(=O)[nH]c(N/N=C/c2cccs2)n1,-24.6,nt,8594,nt,1.4,nt,nt
O=C(Nc1cccc2c1C(=O)NC2=O)c1ccc(S(=O)(=O)N2CCCC2)cc1,-5.9,-2.9,3832,3.6,nt,2.2,0.4
C=CCn1c(SCC(=O)Nc2sccc2C#N)nc2sc(C)c(C)c2c1=O,-9.9,-0.3,3773,9.2,6.3,nt,nt
CCOC(=O)Cn1c2ccccc2n2nc(CCC(=O)O)c(=O)nc12,2.1,9.6,4836,-1.9,-10.6,0.5,12.3
Cc1ccc2oc(=O)n(CCC(=O)Nc3ccc(N4CCOCC4)cc3)c2c1,-3.3,4.6,4628,12.2,-8.3,-8.7,-4.9
COc1ccc(-c2c(C#N)c(C)nc3c2C(=O)c2ccccc2-3)cc1,-5.3,4.6,3931,7.9,-0.7,-1.0,1.7
O=C(Nc1ccc2c(c1)OCO2)C1CCCN1C(=O)Nc1ccccc1 (stereo unspecified),-22.1,1.5,3591,0.3,-1.4,8.1,-0.4
Nc1ccc2c(c1)nnn2-c1ccccc1,-25.6,3.5,4530,-6.1,11.2,5.3,-3.6
CCCn1c(C)cc(=O)c2cc(NC(=O)c3ccccn3)ccc21,5.9,-1.3,2378,-2.5,4.5,nt,nt
COc1cc(OC)cc(-c2oc(=O)c3cc(OC)c(OC)cc3c2C#CCCCO)c1,-2.9,5.1,3084,0.6,nt,2.0,10.5
CCN(CC)c1nc(C#N)cc(-c2ccc(OC)cc2)n1,-129.2,-7.9,2682,45.0,30.9,4.9,8.5
Cc1ccn2c(NC3CCCCC3)c(C)nc2c1,-0.1,-3.5,6067,-6.1,-3.3,-11.8,5.5

# The list goes on, starting with the last 7 of the part before.
SMILES,PrP 5UTR inh,RN4220 kill,Autofluor counter,Sa ugtP lethal,BJeLR viability,Mtb hypoxia inh,Mtb hypoxia inh growth
COc1ccc(-c2c(C#N)c(C)nc3c2C(=O)c2ccccc2-3)cc1,-5.3,4.6,3931,7.9,-0.7,-1.0,1.7
O=C(Nc1ccc2c(c1)OCO2)C1CCCN1C(=O)Nc1ccccc1 (stereo unspecified),-22.1,1.5,3591,0.3,-1.4,8.1,-0.4
Nc1ccc2c(c1)nnn2-c1ccccc1,-25.6,3.5,4530,-6.1,11.2,5.3,-3.6
CCCn1c(C)cc(=O)c2cc(NC(=O)c3ccccn3)ccc21,5.9,-1.3,2378,-2.5,4.5,nt,nt
COc1cc(OC)cc(-c2oc(=O)c3cc(OC)c(OC)cc3c2C#CCCCO)c1,-2.9,5.1,3084,0.6,nt,2.0,10.5
CCN(CC)c1nc(C#N)cc(-c2ccc(OC)cc2)n1,-129.2,-7.9,2682,45.0,30.9,4.9,8.5
Cc1ccn2c(NC3CCCCC3)c(C)nc2c1,-0.1,-3.5,6067,-6.1,-3.3,-11.8,5.5
COc1ccc(C(C)=O)cc1CC(C(=O)c1ccc(F)cc1)N(C)C (stereo unspecified),-28.0,0.6,2155,0.7,8.6,6.3,5.5
CCn1c(=O)c(C(=O)NNS(=O)(=O)c2ccc(Cl)cc2)c(O)c2ccccc21,-18.0,67.3,9234,41.9,3.8,1.9,0.6
COc1cc(/C=N/Nc2nc3ccccc3[nH]c2=O)ccc1O,-11.5,nt,2014,nt,5.4,nt,nt
CCC(C)NC(=O)c1ccccc1NC(=O)c1ccc(CSc2ccc(C)cc2)cc1 (stereo unspecified),-4.8,-9.9,17124*,-30.6,1.7,0.6,5.9
C/C(=N/NC(=O)C1CCCCC1)c1ccc([N+](=O)[O-])cc1,-20.4,nt,2447,nt,12.3,nt,nt
O=C(NCc1ccccc1Cl)C1CCCO1 (stereo unspecified),-12.4,4.7,4091,-7.7,-0.5,3.4,6.8
CCN(CC)C(=O)Cn1cnc2c1c(=O)n(C)c(=O)n2C,-16.2,3.2,nt,4.1,-3.0,2.5,4.3
Cc1ccc(C)c(NC(=O)NNC(=O)CCc2ccccc2)c1,-16.9,2.5,5152,3.9,1.9,12.6,3.4
O=c1[nH]c(SCc2ccccc2Cl)nc2c1CCCC2,10.4,2.9,20115*,-16.5,0.9,12.0,13.4
O=c1ccn(-c2cccc(C(F)(F)F)c2)nc1-c1ccn(-c2ccccc2F)n1,-7.0,-2.6,3462,-10.4,-4.0,15.3,12.2
COc1ccc(C(=O)N/N=C/c2cc3ccccc3[nH]c2=S)cc1,-17.1,nt,4101,nt,-8.1,nt,nt
Cc1ccc(S(=O)(=O)N2CCOCC2)cc1NC(=O)CNCc1cccnc1,-3.2,3.1,4409,-3.7,-5.6,5.6,1.6
CCCOC(=O)c1c(NC(=O)c2cnn3c2NC(c2ccccc2)CC3C(F)(F)F)sc2c1CCCC2 (stereo unspecified),-19.7,4.9,9083,1.5,-1.3,-7.6,-1.7
O=[N+]([O-])c1cc(C=NO)ccc1Oc1ccc(F)cc1,nt,6.2,nt,10.3,nt,5.4,1.8
CC1CN(C(C)CO)C(=O)c2cccc(NC(=O)c3ccncc3)c2OC1CN(C)S(C)(=O)=O (stereo unspecified),nt,3.8,nt,1.6,nt,11.1,7.2
O=C(c1ccccc1)c1ccc(OCC(O)CN2CCN(S(=O)(=O)N3CCCCC3)CC2)cc1 (stereo unspecified),-25.4,6.0,23589*,-2.2,13.3,7.6,5.4
COc1ccc(NC(=O)CSc2nnc(NC(=O)CN3CCOCC3)s2)cc1,-12.2,-2.1,5087,3.3,2.5,4.3,8.4
CC(=O)NCCc1c(C)n(Cc2ccccc2)c2ccccc12,-20.4,1.6,4119,0.1,1.6,17.2,3.7
COc1cc(/C=C2\SC(=S)N(NC(=O)c3ccccc3O)C2=O)ccc1O,-13.5,20.6,3937,0.2,3.0,-1.5,-10.1
CCOC(=O)c1sc2ncn(C(C)C(=O)OC)c(=O)c2c1C (stereo unspecified),-7.5,0.6,4395,-2.1,0.7,6.1,1.5
Cc1ccc(C)c(NC(=O)CN(C)C(=O)C2COc3ccccc3O2)c1 (stereo unspecified),-8.8,2.1,8772,-0.1,nt,-0.2,3.9
O=C(NN=Cc1cc([N+](=O)[O-])cc(Br)c1O)C12CC3CCC(CC(C3)C1)C2,nt,22.1,nt,2.5,nt,7.8,-0.7
CCCCNC(=O)Nc1ccc2c(c1)N(C)C(=O)c1ccccc1S2,-5.2,-2.1,3491,7.6,2.4,8.1,13.7
CCCCCn1c(=O)[nH]c2cc(C(=O)NCCCN3CCCCC3C)ccc2c1=O (stereo unspecified),-11.5,1.1,7179,11.3,-5.3,-1.0,2.6
O=C(Cn1c(=O)oc2cc(S(=O)(=O)NCc3ccccc3)ccc21)N1CCCC1,-25.1,2.0,5283,4.5,10.8,-3.8,3.4
CC1CCCCN1C(=O)CSc1nnc(CSc2ncccn2)n1C (stereo unspecified),-21.2,4.3,7107,5.4,0.3,6.5,11.8
C=C1C2(C(=O)Nc3nccs3)CCC(C2)C1(C)C (stereo unspecified),-16.2,1.8,16038,-6.1,4.9,-4.5,-4.6
O=C(CSc1nc(O)cc(=O)n1-c1ccccc1)Nc1ccc(Br)cn1,-0.2,-17.3,3237,6.5,-8.7,7.5,-0.8
CCSc1nc2sc3c(c2c(=O)n1-c1ccccc1C)CCN(C)C3,-2.2,1.6,4927,31.5,-8.8,13.6,2.6
COC(=O)Cc1[nH]nc2c1C1(C(=O)N(Cc3ccccc3)c3ccccc31)C(C#N)=C(N)O2 (stereo unspecified),-16.4,18.6,8072,-8.2,9.8,16.7,11.5
O=C(CCS(=O)(=O)c1cccs1)Nc1ccc(C(=O)NC2CCCC2)cc1,-11.0,nt,3456,nt,-10.3,nt,nt
COc1ccc(C2N(c3ccc(F)cc3)C(=O)C3CCCN32)cc1 (stereo unspecified),-7.2,2.6,6591,9.8,-6.3,nt,nt
COCc1nnc(NS(=O)(=O)c2ccc(C)cc2)s1,-17.9,1.7,8493,-0.1,-6.5,7.8,-11.5
CN(C)c1ccc(CN(C)C2CCCCC2)cc1,-22.6,2.7,7972,8.6,0.2,-2.1,3.6
NS(=O)(=O)c1ccc(CCNC(=O)C(=O)NCC2OCCN2S(=O)(=O)c2ccc(Cl)cc2)cc1 (stereo unspecified),-13.1,-7.8,5768,8.0,6.5,4.7,7.1
CCOc1ccc2nc3ccc4[nH]onc4c3c2c1,-4.7,-12.4,5438,-2.3,8.8,12.0,-1.7
Cc1c(Cl)cnc(NC(=O)COC(=O)[C@H](C)NC(=O)c2ccccc2)c1Cl,nt,2.3,?,-1.1,nt,8.0,1.6
CC1=C(C(=O)OC(C)C)C(c2ccncc2)n2ncnc2N1 (stereo unspecified),-14.4,-11.5,3244,-8.9,-3.1,9.5,7.5
Cc1nc(CSc2ccc(Cl)cc2)cc(NCc2ccccc2)n1,-7.8,-4.9,2996,7.2,2.2,nt,nt
CC(=NNC(=O)c1ccc(Br)o1)c1cccs1,nt,3.7,nt,-2.4,nt,-0.4,6.4
CC(=O)C1C=CC(C)(C(=O)O)C2C=C(C)C(=O)C(C)(O)C12 (stereo unspecified),-8.7,0.3,3804,0.5,nt,15.8,7.0
O=C(NCc1ccc2c(c1)OCO2)C1CCN(C(=O)Nc2ccc(Cl)cc2)CC1,-13.8,3.5,5945,3.1,6.7,3.8,10.0
CN1CCC(=O)N([C@H](CSc2ccccc2)c2ccccc2)CC1,-22.3,nt,2955,nt,0.7,nt,nt
O=C(N=C1SC2CS(=O)(=O)CC2N1c1ccccc1Cl)C1CCCO1 (stereo unspecified),0.1,1.4,5467,2.1,1.1,5.1,7.2
COC(=O)CCC(=O)Nc1cccc2ccccc12,-16.2,-0.5,3943,-3.6,-1.4,nt,nt
O=C(CSc1nnc(-c2ccccc2O)o1)N1CCOCC1,-30.2,0.4,5257,6.1,-14.2,0.9,1.1
COc1ccc(S(=O)(=O)N2CCC(C(=O)NCCC3=CCCCC3)CC2)cc1OC,-20.5,1.1,6885,1.8,-2.8,1.4,1.8
N#Cc1ccc(Cn2c(-c3ccc(F)cc3)noc2=O)cc1,-23.9,nt,3809,nt,0.3,nt,nt
Cc1ccc(N(C)S(=O)(=O)c2cccc(C(=O)NC3CC(C)(C)NC(C)(C)C3)c2)cc1,5.1,4.5,?,5.4,-2.7,1.8,4.4
COc1ccc(S(=O)(=O)N2CCCC(C(=O)N3CCCCCC3)C2)cc1 (stereo unspecified),-28.0,7.4,3366,0.3,-1.0,13.4,9.5
Cc1cc(NCCOCCO)n2c(nc3ccccc32)c1C#N,-10.8,-0.6,4175,0.8,1.7,-5.5,-25.4
Cc1ccc(C)c(NC(=S)NCCSc2ccc(Cl)cc2)c1,-9.2,-6.4,2456,-11.7,3.9,-1.4,-2.5
O=c1[nH]c(-c2ccccn2)nc2ccccc12,-33.5,17.3,2425,17.0,1.2,-8.4,-6.1
CCCCN(C(=O)C1CC(=O)N(c2ccc(C)cc2)C1)c1c(N)n(CCC)c(=O)[nH]c1=O (stereo unspecified),-12.6,-3.2,?,-0.2,nt,-7.3,-4.9
Cc1nn(-c2ccccc2)c(C)c1/C=C/C(=O)OCC(=O)NC1CCS(=O)(=O)C1 (stereo unspecified),-24.3,1.9,3189,-0.5,6.4,1.9,4.6
Cc1cccc(-n2c(SCc3ccc([N+](=O)[O-])cc3)nnc2-c2c[nH]c3ccccc23)c1,-14.3,-4.3,4653,15.7,-6.1,6.3,9.4
CCN(C(=O)COC(=O)c1[nH]c(C)c(C(C)=O)c1C)c1c(N)n(Cc2ccccc2)c(=O)[nH]c1=O,-0.7,5.4,3034,8.0,nt,3.8,-5.0
CC(OC(=O)C1=Cc2ccccc2OC1)C(=O)NC1CCCC1 (stereo unspecified),-31.0,0.7,10926,6.4,-10.3,-5.2,-6.3
Oc1cccc(Nc2nc(O)c(/C=C3\C=Nc4ccccc43)s2)c1,-35.9,2.0,8900,1.6,nt,-11.7,-2.2

# Screens deposited in PubChem by several laboratories.
